Rango-impB inh – qHTS Assay for Inhibitors of Rango (Ran-regulated importin-beta cargo) - Importin beta complex formation | Importin subunit beta-1 (Homo sapiens), Q14974 | Rango CFP/YFP FRET sensor + importin beta, 45 min | Potency, µM (titrated, usually from 92.2 µM), for inactives: at the top dose inhibition of complex formation | actives 0.031% (n = 340,000) | AID 540263, 2011; active = rising FRET ratio curve, often small or poorly fitted; inconclusive = mostly compound fluorescence or quenching in the first reads; inactive = flat curves in all reads;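 further: potency means the concentration at half of the fitted maximal effect; 0% = DMSO wells and 100% = buffer wells lacking importin beta; nearly all actives have a fitted effect of over 15% in size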
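FRET biosensor Rango (snurportin 1 IBB between N-terminal EYFP and C-terminal Cerulean), 50 nM in PBS/1 mM DTT/0.02% Tween-20/0.1% BSA, preincubated 5 min RT with compound; 0.125 microM importin beta added, 45 min RT, CFP/YFP FRET ratio read.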
Rango release inh – qHTS Assay for Inhibitors of RanGTP induced Rango (Ran-regulated importin-beta cargo) - Importin beta complex dissociation | Potency, µM (highest dose often 46.1 µM), for the others: top-dose activity change, negative = inhibition | Biochemical FRET Rango-importin beta, RanGTP-induced dissociation | actives 0.071% (n = 340,000) | Snurportin-1 (Homo sapiens) + GTP-binding nuclear protein Ran (Homo sapiens) + Importin … | AID 540253, 2011; active means falling FRET ratio curve, often poorly fitted, with flat reads before Ran was added; inconclusive means other falling curves, or compound fluorescence or quenching; inactive means flat or rising ratio curve;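 further: potency means the concentration at half of the fitted maximal effect; % of control where 0% means no effect; nearly all actives have a fitted effect of over 45% in size; -100% = wells without RanGTP and RCC1; the record marks most hits as doubtful in a second field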
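Rango/importin beta premix (0.1/0.25 uM final), PBS + 1 mM DTT + 0.02% Tween-20 + 0.1% BSA; cpd 5 min RT; FRET pre-read; + RanGTP-RCC1 (0.6 uM Ran, 2 mM GTP, 0.2 uM RCC1); 45 min RT; FRET post-read, ex 430, em 486/530 nm.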
GLA inh pH 4.5 – qHTS Assay for Inhibitors of Human alpha-Galactosidase at pH 4.5; Alpha-galactosidase A (Homo sapiens), P06280; purified enzyme, 4-MU-alpha-Gal fluorescence, pH 4.5; 230,000 tested, under 10 active; activity change, negative = inhibition, % at 105 µM; inconclusive = small, poorly fitted or top-dose-only inhibition, or a rising curve; inactive = flat fitted curve, though single readings scatter; no compound was filed as active;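 further: 0% = full activity with enzyme and -100% = basal without enzyme; dose as in the result columns while the protocol names 77 µM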
Target sequence (P06280 whole entry, looked up): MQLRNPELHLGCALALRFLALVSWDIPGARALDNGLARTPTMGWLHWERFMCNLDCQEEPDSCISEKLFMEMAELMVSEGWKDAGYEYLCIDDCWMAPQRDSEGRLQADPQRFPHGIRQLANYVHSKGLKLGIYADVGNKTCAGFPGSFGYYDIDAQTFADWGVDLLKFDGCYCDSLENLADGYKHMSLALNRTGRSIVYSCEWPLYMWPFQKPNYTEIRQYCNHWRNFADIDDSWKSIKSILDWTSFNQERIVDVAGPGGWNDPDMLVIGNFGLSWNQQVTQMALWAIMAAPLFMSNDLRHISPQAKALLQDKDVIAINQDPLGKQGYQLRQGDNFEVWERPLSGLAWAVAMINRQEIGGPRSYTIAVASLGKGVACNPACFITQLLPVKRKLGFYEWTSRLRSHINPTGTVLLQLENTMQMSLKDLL
miR-21 reporter – qHTS Assay for Modulators of miRNAs and/orActivators of miR-21 | HeLa miR-21 FLuc reporter, luciferase, 48 h | Potency, µM (top dose mostly 38.3 µM), for the others: top-dose reporter change, positive = more light | 340,000 tested, under 10 active; active = well fitted rising curve with a large enough effect; inconclusive = small, poorly fitted or top-dose-only effect; inactive = no such curve, though single readings can be large or run the other way;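 further: % of control where 0% means no effect; miR-21 action dims this reporter so a rising signal means less miR-21 action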
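HeLa cells stably expressing CMV-driven firefly luciferase with a downstream miR-21 binding sequence, endogenously expressing miR-21, were treated with titrations (up to about 40uM final) for 48 hours at 37 degree Celsius. Luciferase luminescence was read after lysis.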
The depositor's hits bear a star; ? = inconclusive; · = no result given.

SMILES | Rango-impB inh | Rango release inh | GLA inh pH 4.5 | miR-21 reporter
CC1CC1C(=O)Nc1nc(-c2cccs2)c(-c2cccs2)s1 (stereo not given) | 5.6% | -1% | 6 | 1%
c1ccc(CN=C2Nc3ccccc3CS2)nc1 | 0.9% | -5% | -4 | -43%
NS(=O)(=O)c1ccc(NC(=O)CSc2nnc(C3CC3)n2C2CC2)cc1 | 1.3% | -4% | · | ·
CC(C)NC(=O)NC(=O)CN1C(=O)NC(Cc2c[nH]c3ccccc23)C1=O (stereo not given) | -1.1% | 5% | 9 | -2%
COc1cccc(-n2c(=O)n(Cc3ccccc3)c(=O)c3[nH]cnc32)c1 | 2.9% | 7% | -6 | -12%
CCOC(=O)c1c(NC(=S)N2CCN(C)CC2)sc(C)c1-c1ccccc1 | -4.2% | -12% | · | 8%
O=C(c1cn(-c2ccccc2)nc1-c1cccc([N+](=O)[O-])c1)N1CCCCC1 | -0.5% | -1% | 2 | 5%
O=C(O)c1cc(N/N=C/c2ccc(N3CCOCC3)s2)ccc1Cl | ? | ? | -7 | -43%
O=C(Nc1ccc(NC(=O)c2ccco2)cc1)c1cnccn1 | 1.5% | -12% | 4 | -38%
CCCCn1cc(C(=O)c2cc(Br)ccc2O)cc(C#N)c1=O | -1.0% | -4% | 2 | 29%
CCCOc1ccc(C(=O)NC(=S)NNC(=O)c2c(-c3ccccc3)noc2C)cc1 | -1.6% | 0% | 1 | 18%
CC1CCC2(CC1)NC(=O)N(CC(=O)Nc1sc3c(c1C(N)=O)CCC3)C2=O (stereo not given) | ? | 0% | -26 | -5%
NS(=O)(=O)c1ccc(N2N=C(c3ccccc3)CC2c2ccccc2)cc1 (stereo not given) | ? | -13% | ? | 10%
FC(F)(F)c1ccc(Cl)c(-n2c(-c3cc(-c4ccco4)[nH]n3)n[nH]c2=S)c1 | 0.3% | -8% | 9 | 3%
CCOC(=O)N1CCC(NC(=O)c2cccs2)CC1 | 2.9% | 0% | -9 | 3%

Pulled by structure from the entries so far, 6 records:
SMILES | Rango-impB inh | Rango release inh | GLA inh pH 4.5 | miR-21 reporter
NS(=O)(=O)c1ccc(NC(=O)CSc2nnc(C3CC3)n2C2CC2)cc1 | 1.3% | -4% | · | ·
CCCCn1cc(C(=O)c2cc(Br)ccc2O)cc(C#N)c1=O | -1.0% | -4% | 2 | 29%
CCOC(=O)N1CCC(NC(=O)c2cccs2)CC1 | 2.9% | 0% | -9 | 3%
O=C(Nc1ccc(NC(=O)c2ccco2)cc1)c1cnccn1 | 1.5% | -12% | 4 | -38%
COc1cccc(-n2c(=O)n(Cc3ccccc3)c(=O)c3[nH]cnc32)c1 | 2.9% | 7% | -6 | -12%
CC1CC1C(=O)Nc1nc(-c2cccs2)c(-c2cccs2)s1 (stereo not given) | 5.6% | -1% | 6 | 1%

(cont.)
SMILES | Rango-impB inh | Rango release inh | GLA inh pH 4.5 | miR-21 reporter
COc1ccc(C(=O)Nc2ccc3ccccc3c2)cc1 | -0.9% | 21% | · | -7%
CC(C)c1nc2sc3c(NCc4ccco4)ncnc3c2c2c1COC(C)(C)C2 | -7.5% | -12% | 0 | -10%
CCCCn1c(SCc2nnc(-c3ccccc3)o2)nc2c1c(=O)n(C)c(=O)n2C | 2.4% | -10% | 8 | -12%
CC(=O)Nc1cccc(C(=O)Oc2cccc(C)c2)c1O | 5.8% | -15% | -3 | -4%
CCOC(=O)CN1C2=NCCCN2c2ccccc21 | -3.4% | 0% | 12 | 0%
CC(C)(C)c1ccc(C2CC2C(=O)N/N=C\c2cc3ccccc3nc2Cl)cc1 (stereo not given) | -1.5% | 1% | -7 | -1%
COc1c(C(O)CC(C)C)ccc2c1C(=O)OCc1cc(C)cc(O)c1O2 (stereo not given) | 1.7% | -9% | -3 | 29%
Cc1nc2ccccc2n1CC(=O)NCCN1CCOCC1 | 1.4% | 5% | 8 | 0%
CC1=C(C(=O)Nc2ccc(CC(=O)NCc3ccccc3C)cc2)SCCO1 | -4.3% | -4% | · | 0%
COCCN(C(=O)COC(=O)CCCc1c[nH]c2ccccc12)c1c(N)n(Cc2ccccc2)c(=O)[nH]c1=O | 1.6% | -6% | · | ·
FC(F)(F)c1cccc(NC(=S)NC2CCCC2)c1 | -3.7% | -8% | -13 | ?
CC(=O)c1c(C)[nH]c(C(=O)OCC(=O)Nc2ccc(Cl)c(S(=O)(=O)N(C)C)c2)c1C | -1.0% | -12% | -17 | ?
Cc1ccc(CC2CC(=O)N(c3nc4ccccc4n3C)C2=O)cc1 (stereo not given) | -0.5% | -14% | 2 | -1%
COCCCNC(=O)c1ccc(C2SCC(=O)N2Cc2ccco2)cc1 (stereo not given) | -2.2% | 0% | 3 | 0%
CC1CN(S(=O)(=O)c2ccc(F)cc2)C(C)N1C(=O)N1CCOCC1 (stereo not given) | 1.9% | 15% | · | 0%
CCCc1cc(-c2ccc(O)c(OCC)c2)c(C#N)c(N)n1 | -4.5% | -11% | -7 | -8%
CCN(CC)S(=O)(=O)c1ccc(N2CCCC2)c(C(=O)Nc2ccc(OC)c(Cl)c2)c1 | -4.9% | 7% | -6 | -7%
CCOc1ccc2[nH]cc(C(=O)NCCCN3CCOCC3)c(=O)c2c1 | -3.6% | -2% | -5 | 0%
O=C(NNc1ncnc2c1cnn2-c1ccccc1)c1cccs1 | 3.1% | 6% | -5 | -2%
Cc1onc(-c2ccccc2)c1C(=O)N1CCN(Cc2ccc3c(c2)OCO3)CC1 | 1.3% | 1% | 2 | 0%
Cc1ccc(S(=O)(=O)N2CCCCC2)cc1C(=O)NC1CCCCC1 | -0.4% | 19% | · | -3%
CCOC(=O)Cc1csc(NC(=O)Cc2ccc(Cl)cc2)n1 | 2.3% | 2% | -7 | 2%
CCCC[C@H](CN[C@@H](CNC)[C@H](C)CC)NCCC12CCC(CC1)C2 | -0.9% | -7% | · | 25%
CC(=O)c1ccc(N2CCN(C(=O)C3CCCN(S(=O)(=O)c4cnc[nH]4)C3)CC2)cc1 (stereo not given) | -1.2% | 5% | 1 | -15%
COC(=O)c1ccccc1NC(=O)CSc1n[nH]c(-c2ccco2)n1 | -0.3% | 14% | · | -1%
COc1ccc(/C=N/Nc2nc(C(=O)O)cs2)cc1 | -1.5% | -7% | · | -45%
CCN1C(=O)c2cccc3c(S(=O)(=O)N(C(C)=O)c4ccc(OC(C)=O)cc4)ccc1c23 | ? | ? | · | ·
O=C(CN1C(=O)COc2ccccc21)NCc1ccccn1 | 2.6% | 1% | 7 | -16%
c1ccc(C2CCC(N3CCN(c4ccccc4)CC3)CC2)cc1 (stereo not given) | -0.1% | 25% | · | 17%
CNC(=O)c1cccc2cccc(Sc3ccccc3C(=O)O)c12 | -3.1% | -4% | 2 | 2%

Three entries out of the list above, sorted by the number in Rango-impB inh, smallest number first.
canonical_smiles	Rango-impB inh	Rango release inh	GLA inh pH 4.5	miR-21 reporter
CC(C)(C)c1ccc(C2CC2C(=O)N/N=C\c2cc3ccccc3nc2Cl)cc1 (stereo not given)	-1.5%	1%	-7	-1%
CCCC[C@H](CN[C@@H](CNC)[C@H](C)CC)NCCC12CCC(CC1)C2	-0.9%	-7%	·	25%
CC1CC1C(=O)Nc1nc(-c2cccs2)c(-c2cccs2)s1 (stereo not given)	5.6%	-1%	6	1%

The list continues:
SMILES | Rango-impB inh | Rango release inh | GLA inh pH 4.5 | miR-21 reporter
COc1ccc(-n2cnc3cc(NCc4cccs4)ccc32)cc1 | -0.1% | 0% | -2 | -53%
O=C(N/N=C/c1ccco1)c1ccc(NC(=O)C2CC2)cc1 | 0.9% | 0% | 4 | -1%
COc1ccc(CNC(=O)Cc2csc(NC(=O)Nc3ccccc3OC)n2)cc1 | -0.1% | 6% | · | ·
CCC(=O)N1c2ccccc2NC2=C(C(=O)CCC2)C1c1ccccc1 (stereo not given) | -0.5% | -10% | 7 | 1%
C=CCOc1ccc(C(c2c(C)n(C)n(-c3ccccc3)c2=O)c2c(C)n(C)n(-c3ccccc3)c2=O)cc1 | -2.0% | -4% | · | -15%
COc1cc(NS(=O)(=O)c2ccc(NC(=S)NC(=O)c3ccccc3)cc2)nc(OC)n1 | 5.2% | -17% | · | -13%
CC(C)OC(=O)CSc1nnc(-c2cccnc2)n1Cc1ccccc1 | 4.4% | -14% | -7 | -11%
Cc1cc(NC(=O)CC(F)(F)F)n(-c2ccccc2)n1 | 0.3% | 1% | -5 | 2%
Cc1ccc(/C(O)=C2/C(=O)C(=O)N(c3ccccn3)C2c2ccc(F)cc2)cc1 (stereo not given) | 0.1% | 0% | · | -29%
Nc1nc2n(n1)C(c1cccs1)CC(c1ccccc1)N2 (stereo not given) | 1.9% | 4% | -1 | -10%
COc1cccc(-c2nnc(SCC(N)=O)n2-c2ccc(Cl)cc2)c1 | -1.9% | -7% | -4 | -8%
Cc1n[nH]c(C)c1S(=O)(=O)N(CC(=O)N1CCc2ccccc21)c1ccc(C(C)C)cc1 | 0.0% | 4% | -1 | -5%
O=C(Nc1ccccc1)N1CCCN(c2ccc(C(F)(F)F)cc2[N+](=O)[O-])CC1 | 0.6% | 12% | -14 | 12%
CCN1C(=O)c2ccc(C(=O)NCc3ccc4c(c3)OCO4)cc2C1=O | -0.3% | 10% | 7 | -4%
COc1ccc(C2CC(c3ccc4ccccc4c3)=NN2C(=O)CSc2ncccn2)cc1 (stereo not given) | -0.7% | -1% | -2 | -23%

Full records, looked up by structure. Screens in order: Rango-impB inh	Rango release inh	GLA inh pH 4.5	miR-21 reporter
Cc1n[nH]c(C)c1S(=O)(=O)N(CC(=O)N1CCc2ccccc21)c1ccc(C(C)C)cc1 across the screens: 0.0%	4%	-1	-5%
COc1ccc(-n2cnc3cc(NCc4cccs4)ccc32)cc1 across the screens: -0.1%	0%	-2	-53%
Cc1ccc(/C(O)=C2/C(=O)C(=O)N(c3ccccn3)C2c2ccc(F)cc2)cc1 (stereo not given) across the screens: 0.1%	0%	·	-29%
O=C(Nc1ccccc1)N1CCCN(c2ccc(C(F)(F)F)cc2[N+](=O)[O-])CC1 across the screens: 0.6%	12%	-14	12%
Cc1cc(NC(=O)CC(F)(F)F)n(-c2ccccc2)n1 across the screens: 0.3%	1%	-5	2%

(continued)
SMILES | Rango-impB inh | Rango release inh | GLA inh pH 4.5 | miR-21 reporter
O=C(COC(=O)c1ccc(F)c(S(=O)(=O)N2CCOCC2)c1)NC1CC1 | -2.4% | -10% | · | ·
CS(=O)(=O)Nc1cccc(C2=NN(C(=O)c3cccc(F)c3)C(c3cccs3)C2)c1 (stereo not given) | -0.4% | -11% | · | 4%
CCOC(=O)/C(C#N)=C\c1ccc(N2CCN(C/C=C/c3ccccc3)CC2)cc1 | ? | ? | -9 | -5%
CC(C)(C)NC(=O)NC(=O)CN1CCCCC1 | 0.2% | 7% | 2 | -9%
Nc1ccc(C(=O)c2ccc3c(c2)OCCO3)cc1N | -4.9% | 0% | · | ·
C#CCOCCOCCOCCNc1nc(N2CCN(C(=O)[C@H](Cc3ccc(O)cc3)n3cc([C@@H](N)C(C)CC)nn3)CC2)nc(N2CCN(C(=O)[C@H](Cc3cc4ccccc4[nH]3)n3cc([C@@H](N)Cc4ccc(O)cc4)nn3)CC2)n1 (stereo not given in full) | · | · | -7 | 19%
COc1ccc(C2(O)CCN(C(=O)c3ccc4c(c3)OCO4)CC2)cc1 | ? | 24% | 0 | -13%
CSc1ccc(Cl)c(C(=O)NCC(C)C)c1 | 0.6% | 4% | -6 | 0%
CCOc1ccc(C2/C(=C(\O)c3ccc4c(c3)OCCO4)C(=O)C(=O)N2CCN2CCOCC2)cc1OCC (stereo not given) | -0.8% | 0% | · | -2%
CCOc1ccc(-c2cnc(N)n2C)cc1 | -0.1% | 1% | 3 | 1%
Cn1c(Br)nc2c1c(=O)n(Cc1ccccc1)c(=O)n2C | -2.9% | 8% | · | 2%

A portion of the library; the hit share may differ from the screen's.
